High-throughput results deposited in PubChem BioAssay by National Center for Advancing Translational Sciences (NCATS).
Cruzain inh noDet – inhibitors of Trypanosoma cruzi cruzain without detergent; P25779; purified cruzain, Z-FR-AMC fluorescence, no detergent; Potency, µM, inactives show max response, negative = inhibition, hits mostly inhibitors; 200,000 compounds, 2.3% hits; AID 1476; active = well fitted curve in the direction sought with a large enough effect; inconclusive = small, poorly fitted or top-dose-only effect, or another doubt; inactive = no such curve, though single readings can be large; an effect the other way counts as inactive or inconclusive;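 note: plate controls were enzyme without inhibitor for no effect and buffer without enzyme for full effect; nearly all actives have a fitted effect of over 40% in size; top concentration of the series not given in the record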
Target sequence (P25779 123-467 limits assumed): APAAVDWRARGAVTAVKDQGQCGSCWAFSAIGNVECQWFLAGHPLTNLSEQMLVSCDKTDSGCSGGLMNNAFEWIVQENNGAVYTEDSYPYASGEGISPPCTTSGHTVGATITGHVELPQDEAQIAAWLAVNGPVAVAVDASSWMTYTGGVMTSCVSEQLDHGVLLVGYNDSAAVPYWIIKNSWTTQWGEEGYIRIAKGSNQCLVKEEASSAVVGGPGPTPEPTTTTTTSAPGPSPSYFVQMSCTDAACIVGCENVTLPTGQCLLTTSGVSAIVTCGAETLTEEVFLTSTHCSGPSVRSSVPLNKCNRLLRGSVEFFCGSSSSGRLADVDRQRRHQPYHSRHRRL
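Detergent-free condition (0.00005% Triton X-100) in acetate buffer pH 5.5 with DTT. 1.5 nM enzyme and compound were pre-mixed 15 min, then 2 uM Z-FR-AMC substrate added; reaction progress from fluorescence change between first and third reads (60 s).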
LASV entry inh – inhibitors of Lassa virus binding or cell entry; Lassa virus pseudotype entry inhibition, cell reporter; control for the full effect not named in the record; Potency, µM (doses to about 37.9 µM), for inactives: at the top dose activity change, negative = inhibition, usual class: inhibitors; 300,000 compounds, 1.2% hits; AID 540256; active means well fitted inhibition curve with a large enough effect; inconclusive means small, poorly fitted or top-dose-only effect, or effect the other way; inactive means flat fitted curve, though single readings scatter; tested in HEK293 cells; note: % is set by controls: 0 for no effect and ±100 for the full control effect; nearly all actives have a fitted effect of over 50% in size; luciferase read-out
SARS PLP yeast – SARS-CoV PLP inhibition in yeast. S. cerevisiae expressing SARS-CoV PLpro, growth rescue; control for the full effect not named in the record. Potency, µM (titrated, usually from 32.9 µM), for inactives: top-dose activity, positive = growth rescue. 330,000 compounds, 0.19% hits. AID 485353; note: 0% is about no effect; nearly all actives have a fitted effect of over 55% in size; growth read by luminescence after 48 h
Cruzain inh Det – cruzain (T. cruzi) inhibition with detergent. P25779. 200,000 compounds, 0.43% hits. purified cruzain, Z-FR-AMC fluorescence, 0.01% Triton. AID 1478. Potency, µM, inactives show max response, negative = inhibition, usual class: inhibitors; active = well fitted curve in the direction sought with a large enough effect; inconclusive = small, poorly fitted or top-dose-only effect, or another doubt; inactive = no such curve, though single readings can be large; an effect the other way counts as inactive or inconclusive;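 note: plate controls were neutral wells for no effect and buffer without enzyme for full effect; nearly all actives have a fitted effect of over 40% in size; top concentration of the series not given in the record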
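In this qHTS format, compounds are incubated with 1.5 nM cruzain for 15 min at room temperature before 2 uM Z-FR-AMC is added. Release of AMC is followed at 360/450 nm, and progress is taken as the 60 s fluorescence difference.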
StopGo reporter – FMDV 2A StopGo reporter, luciferase signal. human cells with a luciferase reporter of 2A StopGo recoding; control for the full effect not named in the record. Potency, µM (highest dose often 57.9 µM), for the others: at the top dose signal change, negative = less light. 410,000 compounds, 1.2% hits. AID 1159524; active = well fitted falling curve with a large enough effect; inconclusive = small, poorly fitted or top-dose-only effect; inactive = no such curve, though single readings can be large or run the other way; tested in HEK293T cells; note: % is set by controls: 0 for no effect and ±100 for the full control effect; nearly all actives have a fitted effect of over 45% in size; luciferase light after 4 h
MARV entry inh – inhibitors of Marburg virus binding or cell entry; Marburg virus pseudotyped entry inhibition, cell reporter; control for the full effect not named in the record; about a third of the inactives were read at about 46 µM; Potency, µM (highest dose often 37.8 µM), inactives show top-dose activity change, negative = inhibition, actives largely listed as inhibitors; 300,000 compounds, 1.8% hits; AID 540276; active = well fitted inhibition curve with a large enough effect; inconclusive = small, poorly fitted or top-dose-only effect, or effect the other way; inactive = flat fitted curve, though single readings scatter; tested in HEK293 cells; about a fifth of its hits are not listed in these tables; note: % is set by controls: 0 for no effect and ±100 for the full control effect; luciferase read-out
RE007 growth inh – less growth of the S. pombe RE007 Vpr strain; S. pombe RE007 Vpr strain, BacTiter-Glo ATP luminescence, 24 h; control for the full effect not named in the record; Potency, µM (titrated, usually from 92.2 µM), for the others: at the top dose activity change, negative = less growth; 360,000 compounds, 0.21% hits; active = well fitted falling curve with a large enough effect; inconclusive = small, poorly fitted or top-dose-only effect; inactive = no such curve, though single readings can be large or run the other way;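 note: % is set by controls: 0 for no effect and ±100 for the full control effect; nearly all actives have a fitted effect of over 50% in size; the assay follows cell death caused by Vpr and the record does not say whether a fall means rescue or toxicity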
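Fission yeast strain RE007, carrying one chromosomally integrated HIV-1 vpr copy, was seeded at OD 0.01 in PMG+AL medium with 23 nL pinned compound. After 24 h at 30 °C and 99% humidity, viability was read by BacTiter-Glo luminescence.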
NS1 inh – blocks influenza NS1 protein function. 270,000 compounds, 0.4% hits. S. cerevisiae slowed by influenza A NS1, growth recovery by OD600. Potency, µM (doses to about 46.1 µM), for inactives: at the highest dose activity, positive = more growth. AID 2326; note: actives are rising curves; nearly all actives have a fitted effect of over 50% in size
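OD600 was taken as the measure of yeast growth restored by compound in an NS1-expressing S. cerevisiae strain. Cells had been washed out of glucose medium and diluted 1:100 into galactose -URA medium, pH 6.0.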
Starred values were filed as active, the others as inactive; ? = inconclusive; . = not tested or not shown; & = joins results of further samples; [ ] = remark or other dose. Unless noted, calls come from the whole dose curve; as a rule, active means well fitted rising curve with a large enough effect; inconclusive means small, poorly fitted or top-dose-only effect; inactive means no such curve, though single readings can be large or run the other way. Potency is the fitted concentration of half-maximal effect.

SMILES	Cruzain inh noDet	LASV entry inh	SARS PLP yeast	Cruzain inh Det	StopGo reporter	MARV entry inh	RE007 growth inh	NS1 inh
COC(=O)c1cccc(C(=O)N2CCC(CCC(=O)NCc3ccc(F)cc3)CC2)c1	.	.	18%	.	-25%	.	7%	2%
O=CN/C=C/c1cccc(O)c1	.	1%[46.1 µM]	.	.	0%	25%	-19%	.
Cc1cccc(N2CC(C(=O)Nc3nccs3)CC2=O)c1C (stereo not given)	.	-1%	0%	.	-11%	0%[46.1 µM]	2%	9%
Cc1ccc(C(=O)c2cn(Cc3cccc(Cl)c3)c3nc(C)ccc3c2=O)cc1	-30%	-11%[46.1 µM]	.	-7.5%	-21%	?	.	.
CC(C)Nc1nc(NC(C)C)nc(Oc2ccc(/C=N/O)cc2)n1	-10%	-12%	-2%	2.1%	13%	-13%	-3%	3%
CCCCCOc1ccccc1C(=O)NCCCC(=O)O	3%	16%	-2%	1.1%	7%	9%&9%	1%	-4%
O=c1nc2ccccc2c2n1CC(CN1CCN(c3cccc(Cl)c3)CC1)N2 (stereo not given)	3%	1%	-1%	4.6%	19%	?	2%	-11%
COc1ccccc1Nc1nc2c(S(=O)(=O)c3ccc(C(C)C)cc3)nnn2c2ccsc12	14%	22%[46.1 µM]	.	5.6%	-13%	.	.	.
CCc1cccc(NC(=O)CN2C(=O)COc3ccc(S(=O)(=O)Nc4ccccc4)cc32)c1	-29%	-4%[46.1 µM]	.	-7.5%	0%	.	.	.
Cc1ccc(-c2nnc(-c3ccccc3Br)o2)cc1	.	?	-5%	.	-17%	?	-8%	-26%
O=C(CC1CCCCC1)Nc1ncn[nH]1	-4%	2%	-4%	-2.4%	-4%	0%	5%	6%
CN1CCC2(CC1)NC(=O)C1=C(CN(C)CC1)N2	0%	-1%	0%	2.6%	-17%	6%	15%	1%
O=S(=O)(c1ccc(-c2cnc(C3CC3)o2)cc1)N1CCN(c2cccc(Cl)c2)CC1	-3%	3%[46.1 µM]	.	0.9%	?	.	.	.
Cc1cccc(C(=O)NC2CCN(CC(=O)N3CCOCC3)CC2)c1	4%	-9%	2%	6.4%	3%	2%	2%	-3%
C/C(CC(=O)Nc1ccc(N(C)C)cc1)=N\NC(=O)c1ccc([N+](=O)[O-])cc1	.	1%[46.1 µM]	.	.	-5%	3%[46.1 µM]	1%	2%
CN1C(=O)/C(=C/C=C2\SCCN2C)SC1=S	-11%	6%	-1%	-2.5%	.	?	.	11%
CCOC(=O)C(NC(=O)c1ccccc1)(OCc1ccc(F)cc1)C(F)(F)F (stereo not given)	-5%	?	3%	-1.4%	-7%	-11%	8%	-10%
Cc1ccc2c(c1)C1CC(C)(O2)N(c2cccc(C(=O)N3CCN(c4ccccn4)CC3)c2)C(=O)N1 (stereo not given)	.	?	6%	.	-23%	-12%[46.1 µM]	-3%	-39%
O=C(N/N=C/c1ccoc1)c1ccccc1O	.	.	-7%	.	59%[activator]	.	6%	1%
C=CCn1c(SCC(=O)NC2CCS(=O)(=O)C2)nnc1-c1ccc(Cl)cc1 (stereo not given)	.	-5%	0%	.	-15%	-7%[46.1 µM]	3%	.
CCc1nnc(NS(=O)(=O)c2ccc(N=CC3=C(O)CC(C)(C)CC3=O)cc2)s1	.	8%[46.1 µM]	2%	.	-11%	7%[46.1 µM]	-7%	.
CC(C)(C)OC(=O)N1CCCN(C(=O)Nc2cccc(Cl)c2)CC1	.	16%	0%	.	-6%	20%	11%	-1%
COc1ccc(OC)c(NC(=O)c2cccn2-c2nnc(N3CCCCC3)s2)c1	-29%	14%[46.1 µM]	.	-2.4%	16%	.	.	.
Cc1ccc(C(=O)Nc2ccnc(-c3ccncc3)n2)cc1	.	-7%	-3%	.	1%	-8%[46.1 µM]	-14%	-3%
COc1ccc(N(CC(C)C)S(=O)(=O)c2nnc(NC(=O)c3ccco3)s2)cc1	0%	-23%[46.1 µM]	1%	-7.1%	-7%&-10%	.	-5%	13%
C=C(C)c1nc2cc(OC)c(OC)cc2c(=O)o1	0%	-2%	-1%	-1.6%	-16%	-25%	-10%	0%
Cc1ccc(S(=O)(=O)Nc2cc3c(cc2C)n(C)c(=O)c(=O)n3C)cc1	-5%	5%[46.1 µM]	.	-3.3%	-13%	.	.	.
COc1ccc(C=CC(=O)c2c(OC)cc(OC)c(OC)c2O)cc1	.	-25%	.	.	18µM*	?	-12%	.
CC(=O)NC(CCS(C)(=O)=O)C(=O)Nc1cccc2ccccc12 (stereo not given)	-7%	.	-5%	2.7%	-11%	.	-8%	0%
CCCC1(c2ccccc2)NC(=O)N(CC(=O)Nc2cc(C)ccc2OC)C1=O (stereo not given)	.	-14%	0%	.	2%	-20%[46.1 µM]	-2%	14%
CCc1ccc2c(c1)NC(c1cccnc1)=NC(c1ccc(C(C)(C)C)cc1)=N2	?	?	.	-4.7%	0%	?	.	.
O=C(CSc1nnc(CNC(=O)c2ccccc2)o1)NCC1CCCO1 (stereo not given)	.	0%	2%	.	-6%	-9%	1%	2%
CCOc1ccc(CCNC(=O)C2CCCN(S(=O)(=O)c3c(C)n[nH]c3C)C2)cc1OCC (stereo not given)	?	-6%	-4%	-10%	-17%	1%	-10%	2.5µM*
COc1ccc2c(c1OC)C(=O)OC2c1c(O)n(C2CCCCC2)c(=O)[nH]c1=O (stereo not given)	-12%	13%	3%	4.2%	8%	15%	2%	?
Cc1ccccc1C(=O)NC1(C(F)(F)F)N=C(c2ccccc2)N(C2CCCCC2)C1=O (stereo not given)	?	1%[46.1 µM]	.	-6.8%	?	?	.	.
CC1CCCCC1NC(=O)C1CCCN1S(=O)(=O)c1cccc2nsnc12 (stereo not given)	-14%	.	-6%	2.7%	-17%	.	-4%	-3%
Cn1c2ccccc2c(=O)c2ccc(C#CC3(O)CCCCC3)cc21	.	.	-13%	.	-52%	.	-7%	-30%
O=C(O)C(Cc1ccc(O)cc1)N1C(=O)C2CCCCC2C1=O (stereo not given)	.	.	0%	.	-14%	.	9%	4%
O=C(CCCc1cccs1)Nc1nc2c(s1)CCCC2	-14%	2%	-21%	-8.2%	39%[activator]	-11%[46.1 µM]	-24%	-36%
Cc1c(C(=O)N2CCC2)oc2ccc(Br)cc12	.	?	-12%	.	42%	12%[46.1 µM]	2%	.
CCCOP(=O)(c1ccc(N(C)C)cc1)C(Nc1ccccc1)c1ccc(N(C)C)cc1 (stereo not given)	20%	-24%	-2%	-3.6%	6%	-15%	-3%	20µM*
Cc1oc2ccccc2c1CNC(=O)N(C)C	.	-5%	1%	.	-8%	-1%	3%	-31%
COCCNC(=O)c1ccc2snnc2c1	-8%	?	-5%	-0.1%	-11%	?	-1%	1%
CCN(CC)CCCNC(=O)c1ccc2c(=O)n(CCc3ccccc3)c(=O)[nH]c2c1	0%	?	.	-0.2%	-6%	?	.	.
COCc1ccc(C(=O)Nc2cccc(S(=O)(=O)N(C)c3ccccc3)c2)cc1	.	?	-3%	.	?	?	13%	.
O=S(=O)(Nc1nc(-c2ccccc2)cs1)c1cccc(C(F)(F)F)c1	.	25%[46.1 µM]	-5%	.	5%	15%[46.1 µM]	-1%	-17%
O=C(O)C/C(=C\c1cccc(NC(=O)c2ccccc2Cl)c1)c1nc2ccccc2s1	.	.	-2%	.	24%	.	4%	-80%
COc1ccc(N2CCN(Cc3nc4scc(-c5cccs5)c4c(=O)[nH]3)CC2)cc1	.	-14%	-5%	.	0%	1%[46.1 µM]	1%	.
O=C(O)CCSc1nc2ccccc2n1Cc1ccccc1	.	.	3%	.	-18%	.	1%	14%
O=C1CC(c2ccc(F)cc2)c2c(c3ccccc3[nH]c2=O)O1 (stereo not given)	-15%	?	.	-2.6%	-23%	7%[46.1 µM]	.	.

The results go on:
SMILES	Cruzain inh noDet	LASV entry inh	SARS PLP yeast	Cruzain inh Det	StopGo reporter	MARV entry inh	RE007 growth inh	NS1 inh
NC(=O)c1cc(-c2ccccc2)nc(N2CCCCCC2)n1	5%	-12%	-8%	-3.0%	-25%	-18%	-8%	-47%
CCCCC[C@H]1CN(C2CCCCC2)C(=O)[C@@H]1CC(=O)NCc1ccccc1	.	.	-6%	.	-11%	.	5%	-49%
Cc1ccccc1-c1nc(CS(=O)CC(=O)NC2CCCCC2)c(C)o1 (stereo not given)	.	.	12%	.	93%[activator]	.	-12%	-8%
COCCCNC(=O)c1ccc(-n2c(-c3ccccc3)cc3c2CCC(C)C3)cc1 (stereo not given)	3%	?	.	-2.5%	-27%	.	.	.
Cc1cccc(NC(=O)c2cccc(N3C(=O)C4C5C=CC(C6CC56)C4C3=O)c2)c1 (stereo not given)	.	-20%	1%	.	16µM*	?	4%	4%
Cc1nc(SCC(=O)Nc2ccccc2C(F)(F)F)c(C#N)c(C)c1CC(=O)c1ccc(Br)cc1	-12%	.	-2%	-0.6%	.	.	.	4%
CCN(c1cccc(C)c1)S(=O)(=O)c1cc(CN2C(=O)c3cccnc3C2=O)ccc1OC	.	.	4%	.	17%	.	1%	-29%
COC(=O)c1ccccc1NC(=O)CCCn1nc(C)c2c(C)n(-c3ccccc3)nc2c1=O	4%	-11%&-3%[46.1 µM]	3%	-0.7%	-6%&-13%	0%&0%[46.1 µM]	10%	25%
CC(C)(C)c1ccc(C(=O)N/N=C/c2cccc(Cl)c2)cc1	-27%	-14%	-14%	-4.7%	31%[activator]	-23%	4%	-61%
N/C(=N\c1nc2ccccc2o1)NC(=O)c1ccc(F)cc1	?	-16%	0%	4.0%	17%	-25%	8%	-3%
CCOc1ccc(NC(=O)N2CCN(S(C)(=O)=O)CC2)cc1	.	?	0%	.	-15%	.	53%	-2%
CCOC(=O)C1(C(F)(F)F)N=C(c2ccccc2F)OC(N(C)C)=N1 (stereo not given)	.	.	0%	.	-2%	.	9%	2%
CCCc1sc(N)nc1-c1ccc(Cl)cc1	2%	0%	-26%	-10%	?	-12%	-2%	-32%
Cc1ccc(-c2ccc(SCC(=O)NC3CCCCC3)nn2)cc1	.	?	5%	.	8%	-44%	1%	2%
